Source: PubChem BioAssay
SARS PLP yeast: inhibitors of SARS-CoV papain-like protease in yeast | S. cerevisiae expressing SARS-CoV PLpro, growth rescue; control for the full effect not named in the record | Potency, µM (series often up to 32.9 µM), without a hit: at the top dose activity, positive = growth rescue | 330,000 compounds, 0.19% hits | AID 485353; note: 0% is about no effect; nearly all actives have a fitted effect of over 55% in size; growth read by luminescence after 48 h
RE007 growth inh: less growth of the S. pombe RE007 Vpr strain; 360,000 compounds, 0.21% hits; Potency, µM (highest dose often 92.2 µM), inactives show at the highest dose activity change, negative = less growth; AID 651644; S. pombe RE007 Vpr strain, BacTiter-Glo ATP luminescence, 24 h; control for the full effect not named in the record; active = well fitted falling curve with a large enough effect; inconclusive = small, poorly fitted or top-dose-only effect; inactive = no such curve, though single readings can be large or run the other way;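 note: % is set by controls: 0 for no effect and ±100 for the full control effect; nearly all actives have a fitted effect of over 50% in size; the assay follows cell death caused by Vpr and the record does not say whether a fall means rescue or toxicity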
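Fission yeast strain RE007, carrying one chromosomally integrated HIV-1 vpr copy, was seeded at OD 0.01 in PMG+AL medium with 23 nL pinned compound. After 24 h at 30 °C and 99% humidity, viability was read by BacTiter-Glo luminescence.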
NS1 inh: inhibitors of influenza NS1 protein function; AID 2326; S. cerevisiae slowed by influenza A NS1, growth recovery by OD600; 270,000 compounds, 0.4% hits; Potency, µM (doses to about 46.1 µM), without a hit: at the top dose activity, positive = more growth; note: actives are rising curves; nearly all actives have a fitted effect of over 50% in size
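Compounds were scored for reversing the slow growth caused by influenza A NS1 in S. cerevisiae, measured by optical density at 600 nm. Assay medium contained 2% galactose at pH 6.0; NS1-free yeast of the same strain were the positive control.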
Cruzain inh noDet: cruzain (T. cruzi) inhibition without detergent; purified cruzain, Z-FR-AMC fluorescence, no detergent; P25779; Potency, µM, without a hit: max response, negative = inhibition, usual class: inhibitors; 200,000 compounds, 2.3% hits; active = well fitted curve in the direction sought with a large enough effect; inconclusive = small, poorly fitted or top-dose-only effect, or another doubt; inactive = no such curve, though single readings can be large; an effect the other way counts as inactive or inconclusive;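 note: plate controls were enzyme without inhibitor for no effect and buffer without enzyme for full effect; nearly all actives have a fitted effect of over 40% in size; top concentration of the series not given in the record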
Target sequence (P25779 123-467 limits assumed): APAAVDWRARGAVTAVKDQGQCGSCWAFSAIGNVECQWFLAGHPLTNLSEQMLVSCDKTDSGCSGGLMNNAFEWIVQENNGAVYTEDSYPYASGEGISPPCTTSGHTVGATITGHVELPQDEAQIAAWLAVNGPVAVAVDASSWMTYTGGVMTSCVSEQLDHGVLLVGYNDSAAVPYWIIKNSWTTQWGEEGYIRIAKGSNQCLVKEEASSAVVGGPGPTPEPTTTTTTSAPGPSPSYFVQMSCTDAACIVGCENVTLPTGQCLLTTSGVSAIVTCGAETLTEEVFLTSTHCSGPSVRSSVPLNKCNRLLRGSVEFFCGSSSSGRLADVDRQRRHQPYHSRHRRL
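Detergent-free condition (0.00005% Triton X-100) in acetate buffer pH 5.5 with DTT. 1.5 nM enzyme and compound were pre-mixed 15 min, then 2 uM Z-FR-AMC substrate added; reaction progress from fluorescence change between first and third reads (60 s).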
StopGo reporter: lowers the luciferase signal of an FMDV 2A StopGo reporter | human cells with a luciferase reporter of 2A StopGo recoding; control for the full effect not named in the record | Potency, µM (highest dose often 57.9 µM), for inactives: at the highest dose signal change, negative = less light | 410,000 compounds, 1.2% hits | AID 1159524; active = well fitted falling curve with a large enough effect; inconclusive = small, poorly fitted or top-dose-only effect; inactive = no such curve, though single readings can be large or run the other way; tested in HEK293T cells; note: % is set by controls: 0 for no effect and ±100 for the full control effect; nearly all actives have a fitted effect of over 45% in size; luciferase light after 4 h
Cruzain inh Det: blocks cruzain activity in presence of Triton detergent; purified cruzain, Z-FR-AMC fluorescence, 0.01% Triton; Potency, µM, for inactives: max response, negative = inhibition, usual class: inhibitors; 200,000 compounds, 0.43% hits; active = well fitted curve in the direction sought with a large enough effect; inconclusive = small, poorly fitted or top-dose-only effect, or another doubt; inactive = no such curve, though single readings can be large; an effect the other way counts as inactive or inconclusive;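 note: plate controls were neutral wells for no effect and buffer without enzyme for full effect; nearly all actives have a fitted effect of over 40% in size; top concentration of the series not given in the record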
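Read-out: AMC fluorescence (360 nm excitation, 450 nm emission), four reads over 2 min, first-to-third difference used. Conditions: cruzain 1.5 nM, Z-FR-AMC 2 uM, pH 5.5 acetate, 5 mM DTT, 0.01% Triton X-100.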
LASV entry inh: Lassa virus entry inhibition. Lassa virus pseudotype entry inhibition, cell reporter; control for the full effect not named in the record. Potency, µM (titrated, usually from 37.9 µM), for inactives: at the top dose activity change, negative = inhibition, actives largely listed as inhibitors. 300,000 compounds, 1.2% hits; active means well fitted inhibition curve with a large enough effect; inconclusive means small, poorly fitted or top-dose-only effect, or effect the other way; inactive means flat fitted curve, though single readings scatter; tested in HEK293 cells; note: % is set by controls: 0 for no effect and ±100 for the full control effect; nearly all actives have a fitted effect of over 50% in size; luciferase read-out
Marburg entry inh: Marburg virus entry inhibition; Marburg virus pseudotyped entry inhibition, cell reporter; control for the full effect not named in the record; about a third of the inactives were read at about 46 µM; Potency, µM (titrated, usually from 37.8 µM), without a hit: at the top dose activity change, negative = inhibition, hits mostly inhibitors; 300,000 compounds, 1.8% hits; active = well fitted inhibition curve with a large enough effect; inconclusive = small, poorly fitted or top-dose-only effect, or effect the other way; inactive = flat fitted curve, though single readings scatter; tested in HEK293 cells; about a fifth of its hits are not listed in these tables; note: % is set by controls: 0 for no effect and ±100 for the full control effect; luciferase read-out
An asterisk follows results filed as active; ? = inconclusive; / = no result given; [ ] = remark or other dose. Unless noted, calls come from the whole dose curve; as a rule, active means well fitted rising curve with a large enough effect; inconclusive means small, poorly fitted or top-dose-only effect; inactive means no such curve, though single readings can be large or run the other way. Potency is the fitted concentration of half-maximal effect.

Every second line gives: SARS PLP yeast, StopGo reporter, LASV entry inh, Cruzain inh Det, NS1 inh, Cruzain inh noDet, Marburg entry inh, RE007 growth inh
- CCC(C)NC(=O)CNC(=S)N(Cc1ccc(F)cc1)C1CCCCC1 (stereo not given)
  -2.3%, 4.4%, -9.4%, /, /, /, 18.5%[46.1 µM], 7.0%
- COc1cccc(NC2=NCCCCC2)c1
  -1.0%, 0.0%, -2.4%, /, 3.1%, /, -15.0%[46.1 µM], -8.5%
- c1ccc(-c2csc3ncnc(-n4cnc5ccccc54)c23)cc1
  0.5%, ?, -6.5%, -0.2%, -3.5%, 6.8%, -23.6%[46.1 µM], 12.2%
- COC(=O)c1ccc(CSc2nc3ccccc3c(=O)n2-c2ccc(OC)c(OC)c2)o1
  -9.8%, /, ?, 1.1%, 7.6%, ?, -5.1%, 12.2%
- Cc1ccc(S(=O)(=O)N(C)CC(=O)Nc2ccc(C)cn2)cc1
  -6.8%, 12.8%, -11.1%, /, /, /, -1.3%, -2.8%
- O=C(COc1ccccc1Cl)Nc1ccc(S(=O)(=O)N2CCOCC2)cc1
  3.0%, -12.1%, -14.4%[46.1 µM], /, -0.4%, /, ?, 2.6%
- CCOCCCNC(=O)c1c(C)[nH]c(C(=O)OCC)c1C
  2.4%, 45.5%[activator], -4.1%, 0.0%, -6.0%, 6.9%, 1.3%, 4.0%
- O=C(CNC(=O)c1ccc(N2CCCC2=O)cc1)Nc1ccc(F)c(F)c1F
  1.8%, 54.0%[activator], -16.6%[46.1 µM], /, /, /, 27.2%[46.1 µM], 30.0%
- Cc1ccc2oc(C(=O)N3CCN(Cc4ncccc4C)CC3)c(C)c2c1
  2.2%, 14.7%, 0.1%, /, -18.6%, /, 1.3%, -6.5%
- COc1ccc(NC(=O)C2CCC(=O)N2)cc1 (stereo not given)
  4.1%, 19.7%, 4.7%, 5.1%, 3.7%, 6.3%, ?, 4.8%
- COc1ccc(/C=C/c2nc(S(=O)(=O)c3ccccc3)c(N(C)C)o2)cc1
  -0.6%, -16.5%, /, /, -9.8%, /, /, 22.1%
- CC1CCN(S(=O)(=O)c2ccc3ccccc3c2)CC1
  -13.6%, 10.3%, 4.0%, -3.8%, -1.8%, -1.2%, 2.9%, ?
- CC(=O)c1ccc(N2CCN(S(=O)(=O)c3ccc(-c4coc(C)n4)cc3)CC2)cc1
  /, 0.0%, -21.9%[46.1 µM], -3.0%, /, 20.5%, /, /
- CCOc1ccccc1CNC(=O)c1cc2c(=O)n(Cc3cccnc3)ccc2nc1C
  /, -26.9%, -4.4%[46.1 µM], -5.9%, /, 7.4%, /, /
- COc1ccc(-c2oc3cc(O)c(OC)c(O)c3c(=O)c2OC)cc1
  -1.8%, 44.1%[activator], /, /, -76.5%, /, /, -12.7%
- CCNC(=S)NNC(=O)c1cc(Br)cs1
  22.9%, 16.7%, 5.4%, -1.9%, 9.5%, -1.4%, 17.5%, -13.1%
- CC1CCCN(Cc2cn3c(-c4cccc(Br)c4)nnc3s2)C1 (stereo not given)
  /, -18.8%, 6.6%[46.1 µM], 0.3%, /, 6.9%, /, /
- COc1ccc(N(CC(=O)NC2CCCCCC2)S(=O)(=O)c2c(C)nn(C)c2C)cc1
  1.3%, 9.7%, ?, 1.4%, -13.3%, ?, -3.7%, -7.6%
- O=S(=O)(NC1CCCCCCC1)OCC(Cl)(Cl)Cl
  -6.1%, 15.4%, /, /, -84.2%, /, /, -7.8%
- CC(C)(C)NC(=O)NCCc1ccccc1
  0.3%, 7.9%, 11.7%[46.1 µM], /, 9.6%, /, ?, 6.1%

Later entries.
Every second line gives: SARS PLP yeast, StopGo reporter, LASV entry inh, Cruzain inh Det, NS1 inh, Cruzain inh noDet, Marburg entry inh, RE007 growth inh
- CCCS(=O)(=O)N1CCC(C(=O)Oc2ccc(OC)cc2)CC1
  -0.3%, 18.5%, -2.0%[46.1 µM], /, 28.6%, /, 7.0%[46.1 µM], 10.1%
- CCOc1ccc(CNC(=O)c2[nH]c3ccccc3c2Sc2ccc(C)cc2)cc1
  /, 0.0%, -3.3%[46.1 µM], 0.6%, /, ?, ?, /
- CN(C)c1ccc(NC(=O)CSc2nc(C3CC3)nc3ccccc23)cc1
  -0.6%, -25.2%, /, /, 6.1%, /, ?, 11.0%
- c1cc2c(cc1C1CCCN1)OCCCO2 (stereo not given)
  0.2%, -13.9%, -15.2%, -6.8%, 0.0%, 4.3%, -0.1%[46.1 µM], -5.1%
- S=c1[nH]nc(-c2ccc3ccccc3n2)n1-c1ccccc1Cl
  ?, -1.1%, 5.8%, -3.4%, 8.9%, -4.1%, -2.3%[46.1 µM], -17.1%
- CCCN1C2CCCC1CC(NC(=S)NCCCOCC)C2 (stereo not given)
  1.5%, 9.7%, -9.4%[46.1 µM], /, -5.0%, /, ?, 8.3%
- Cc1ccc(-n2nc(C)c(C(=O)NCCCN3CCN(c4ccc(F)cc4)CC3)c2-n2cccc2)cc1
  /, -21.7%, ?, -2.5%, /, 15.7%, /, /
- COc1ccc(NC(=O)c2cccc3c2C(=O)N(CC2CCCO2)C3)cc1OC (stereo not given)
  -2.2%, 0.0%, /, /, -2.6%, /, /, -3.7%
- CCN(CC)S(=O)(=O)c1cccc(C(=O)N[C@H](C(=O)OCC(=O)Nc2ccccc2)C(C)C)c1
  19.1%, 42.6%[activator], -2.2%, -14.3%, -8.4%, -6.7%, -4.3%, 9.9%
- COc1cc(C=O)ccc1OCc1ccncc1
  0.1%, -16.0%, /, /, 1.8%, /, /, 10.0%
- CCCn1c(SCc2ccccn2)nc2c1c(=O)n(C)c(=O)n2C
  -4.5%, /, 4.5%, 6.6%, -6.4%, -5.9%, -6.4%, 6.3%
- Cc1cc(C)cc(N(C(=O)c2snc(C(N)=O)c2N)C(C(=O)NCC2CCCO2)c2ccc(C)o2)c1 (stereo not given)
  -1.7%, -10.8%, ?, /, ?, /, ?, -6.3%
- O=C1C2C3c4ccccc4C(c4ccccc43)C2c2nc3ccccc3n21 (stereo not given)
  -9.9%, -10.3%, ?, -4.6%, 1.1%, 0.3%, ?, 12.7%
- Cc1ccc(S(=O)(=O)NC(N)=NCCc2ccc(Cl)cc2)cc1C
  10.9%, 1.6%, 9.0%, -3.9%, 14.0%, 11.2%, ?, -8.1%
- CCOc1ccc(N2CC(C(=O)Nc3ccc4c(c3)OCO4)CC2=O)cc1 (stereo not given)
  -0.7%, 29.3%, /, /, /, /, ?, -6.6%
- Brc1ccc2ncnc(Nc3ccc(N4CCOCC4)cc3)c2c1
  -7.3%, ?, ?, -6.1%, -18.6%, -2.6%, ?, 6.7%
- COc1cc(C(c2c(O)nc(SC)[nH]c2=O)c2c(O)nc(SC)[nH]c2=O)cc(OC)c1OC
  0.1%, -5.6%, /, /, -3.9%, /, /, 38.2%
- CN(C)c1ccc(/C=N/NC(=O)C[n+]2ccccc2)cc1
  /, 2.82µM*, -0.5%[46.1 µM], /, /, /, 0.1%[46.1 µM], 13.7%
- O=C(Cn1c(=O)oc2cc(S(=O)(=O)N3CCCC3)ccc21)NC1CCCCC1
  -1.5%, -5.9%, /, /, 9.1%, /, /, -4.0%
- CCOC(=O)C1(C)NC(c2ccccc2F)C2C(=O)N(CC)C(=O)C21 (stereo not given)
  0.4%, -5.2%, 13.7%, /, 2.8%, /, ?, -7.9%

Next section:
Every second line gives: SARS PLP yeast, StopGo reporter, LASV entry inh, Cruzain inh Det, NS1 inh, Cruzain inh noDet, Marburg entry inh, RE007 growth inh
- COc1ccc(NC(=S)N(CCC(C)C)C(C)c2ccncc2)cc1 (stereo not given)
  0.8%, 44.3%[activator], -11.1%, /, -47.1%, /, 17.9%[46.1 µM], -3.1%
- CCNC(=S)Nc1ccc(N2CCCCC2)cc1
  2.2%, 39.0%[activator], -5.2%, /, /, /, 0.7%[46.1 µM], 3.0%
- N#Cc1ccc(OCCN2C(=O)NC3(CCSC3)C2=O)cc1 (stereo not given)
  0.9%, 6.2%, 10.2%, 2.2%, -3.5%, 1.9%, 20.5%[46.1 µM], -0.3%
- CC1CCN(C(=O)CN2C(=O)c3ccccc3S2(=O)=O)CC1
  5.0%, 49.3%[activator], 7.94µM*, 3.0%, -0.4%, ?, ?, -13.7%
- COc1ccc(S(=O)(=O)N2CCC(C(=O)N3CCc4ccccc4C3)CC2)cc1Cl
  -14.3%, /, -7.2%, -2.7%, ?, -2.1%, 4.1%, 3.4%
- COc1ccc(/C=C/C(=O)c2ccccc2)cc1COc1ccccc1F
  2.7%, 20µM*, -29.1%, 1.6%, 14.9%, ?, ?, 2.3%
- COc1ccc(CCNC(=O)C(=O)NCC2OCCN2S(=O)(=O)c2ccccc2)cc1OC (stereo not given)
  11.2µM*, -20.9%, /, /, 5.1%, /, /, 1.2%
- COc1ccccc1-n1cnc2cc(NS(=O)(=O)c3ccc(Br)cc3)ccc21
  -10.7%, -22.0%, -22.8%, -6.7%, ?, ?, ?, 32.5%
- COc1ccc(Nc2ncc3c(n2)CCN(Cc2cc(Br)cs2)C3)c(OC)c1
  /, 0.0%, 6.4%[46.1 µM], -1.1%, /, -5.5%, /, /
- COc1ccc(C(=O)N2CCN(C(=O)c3ccco3)CC2)cc1
  3.8%, -18.4%, 6.3%, 1.4%, -9.5%, -1.2%, 0.0%, 1.4%
- CCC(C)NC(=O)C1CCN(CCCc2ccccc2)CC1 (stereo not given)
  9.9%, -9.6%, 1.9%, /, -3.1%, /, ?, -16.4%
- O=C1C(C=NCc2ccncc2)=C(O)c2ccccc21
  -4.7%, 27.5%, -1.0%, -2.7%, -0.4%, 1.5%, -2.1%, 0.7%
- Cc1cccc(NC(=S)N2CCC(N(C)CC3CCCO3)CC2)c1C (stereo not given)
  1.9%, 14.7%, -29.2%[14.3 µM], 4.5%, 12.7%, -9.7%, 4.4%, 4.0%
- CCC1Oc2ccc(C)cc2N(CC(=O)NCC2CCCO2)C1=O (stereo not given)
  4.1%, -1.0%, 0.0%[46.1 µM], /, -6.1%, /, 2.8%[46.1 µM], -3.7%
